Screening results as filed in PubChem.
CHO parental Ca: signal in parental CHO cells, OX1R antagonist counter-screen. hit rate 0.63% among 330,000. AID 463079. parental CHO-K1, ATP-induced calcium, Fluo-8 fluorescence. inhibition, % at 5.6 µM;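 active = inhibition above that plate's mean sample inhibition plus 3 SD, cut at about 26% in these data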;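 note: 0% = ATP-challenged DMSO wells and 100% = DMSO wells without ATP; some compounds past the cut are filed as inactive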
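Test system: untransfected parental CHO cell line. Compound: one dose, 5.6 µM nominal. Detection: intracellular calcium via Fluo-8 no-wash fluorescent dye. Measure: % inhibition. Benchmarks: ATP-challenged DMSO wells low, unchallenged DMSO wells high.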
OXTR potentiate: human OXTR potentiation; P30559; CHO-OTR cells, Fluo-8 calcium fluorescence, potentiator mode; 0% = oxytocin EC15, 100% = EC100; activation, % at 3 µM; hit rate 0.061% among 320,000;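 active = activation above that plate's cutoff, the mean activation of tested compounds plus 3 SD, cut at about 6.6% in these data, passing the limit was not always enough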;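 note: 100% uses oxytocin at 75 nM as the full agonist control; some results filed as inactive read as strong as hits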
Target sequence (P30559 whole entry, looked up): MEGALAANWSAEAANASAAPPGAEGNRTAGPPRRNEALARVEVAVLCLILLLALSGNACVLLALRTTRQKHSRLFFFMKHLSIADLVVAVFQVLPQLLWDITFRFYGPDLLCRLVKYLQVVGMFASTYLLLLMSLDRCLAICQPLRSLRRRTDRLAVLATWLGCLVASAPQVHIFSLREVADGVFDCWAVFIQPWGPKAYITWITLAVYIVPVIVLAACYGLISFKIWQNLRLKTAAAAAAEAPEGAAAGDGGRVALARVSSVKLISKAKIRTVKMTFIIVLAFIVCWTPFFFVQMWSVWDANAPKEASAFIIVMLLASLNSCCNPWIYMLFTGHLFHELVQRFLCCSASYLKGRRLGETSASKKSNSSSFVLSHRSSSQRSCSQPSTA
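Measured by – Fluo-8 calcium dye fluorescence · Test system – human OTR in CHO cells · Dosing – one concentration, 3.0 µM compound · Controls – EC15 oxytocin alone as 0%, 75 nM oxytocin as 100% · Evaluation – normalized max/min fluorescence ratio, % activation · Timing – 6 min pre-incubation, 100 s read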
* = called active by the depositor; & = joins results of further samples. Only part of the results is shown, and most or all hits are left out here.

How did CCCNC(C)(C)COC(=O)c1ccccc1 do in these assays?
CHO parental Ca: -14; OXTR potentiate: 0

What do the screens show for `CC1(C)[C@H](C(=O)O)N2C(=O)C[C@H]2S1(=O)=O`?
CHO parental Ca: -7; OXTR potentiate: -2

Results for CN1CCN(C2=Nc3ccccc3Oc3ccc(Cl)cc32)CC1 ?
CHO parental Ca: -6; OXTR potentiate: -9

Results for COc1ccccc1OCC(O)CO (stereo not given) ?
CHO parental Ca: -9; OXTR potentiate: -1

Results for CC(=O)OCC(=O)[C@@]12OC(C)(C)O[C@@H]1C[C@H]1[C@@H]3C[C@H](F)C4=CC(=O)C=C[C@]4(C)[C@@]3(F)[C@@H](O)C[C@@]12C ?
CHO parental Ca: -3; OXTR potentiate: -2

How did NCCCC[C@H](N[C@@H](CCc1ccccc1)C(=O)O)C(=O)N1CCC[C@H]1C(=O)O do in these assays?
CHO parental Ca: -3&0; OXTR potentiate: -5&-4

What do the screens show for `Clc1ccc2c(c1)C(N1CCNCC1)=Nc1ccccc1O2`?
CHO parental Ca: -12; OXTR potentiate: -13

What do the screens show for `Nc1c2c(nc3ccccc13)CCCC2`?
CHO parental Ca: 6&10; OXTR potentiate: -6&-13

Results for CC(C(=O)O)c1cccc(C(=O)c2ccccc2)c1 (stereo not given) ?
CHO parental Ca: -10; OXTR potentiate: -1

What do the screens show for `CCOC(=O)C1=C(COCCN)NC(C)=C(C(=O)OC)C1c1ccccc1Cl` (stereo not given)?
CHO parental Ca: 22&16&-2; OXTR potentiate: -16&-9&-10

Results for CCCCc1nc(Cl)c(CO)n1Cc1ccc(-c2ccccc2-c2nn[nH]n2)cc1 ?
CHO parental Ca: -18; OXTR potentiate: 2

How did O=C1O[C@H]([C@@H](O)CO)C(O)=C1O do in these assays?
CHO parental Ca: -3; OXTR potentiate: 3

Results for Cc1ncc(C[n+]2csc(CCO)c2C)c(N)n1 ?
CHO parental Ca: 5&8; OXTR potentiate: -5&-3

Results for O=C1O[C@@H]([C@H](O)CO)C(O)=C1O ?
CHO parental Ca: 12; OXTR potentiate: -6

Results for O=C(NC(CO)C(O)c1ccc([N+](=O)[O-])cc1)C(Cl)Cl (stereo not given) ?
CHO parental Ca: -12; OXTR potentiate: -3

What do the screens show for `O=C(O)COCCN1CCN(C(c2ccccc2)c2ccc(Cl)cc2)CC1` (stereo not given)?
CHO parental Ca: 2; OXTR potentiate: -7

How did CN1CCN(C2=Nc3cc(Cl)ccc3Nc3ccccc32)CC1 do in these assays?
CHO parental Ca: 0; OXTR potentiate: -6

How did CC(O)Cn1cnc2c1c(=O)n(C)c(=O)n2C (stereo not given) do in these assays?
CHO parental Ca: 0; OXTR potentiate: -5

What do the screens show for `CC12CCC3c4ccc(O)cc4CCC3C1CCC2=O` (stereo not given)?
CHO parental Ca: -10; OXTR potentiate: -19

How did CC(=O)OCC(=O)[C@@]1(O)CC[C@H]2[C@@H]3CCC4=CC(=O)CC[C@]4(C)[C@H]3C(=O)C[C@@]21C do in these assays?
CHO parental Ca: -9; OXTR potentiate: -1

How did O=C(O)[C@@H](O)[C@H](O)C(=O)O do in these assays?
CHO parental Ca: -6; OXTR potentiate: 3

How did CCc1cccc2c3c([nH]c12)C(CC)(CC(=O)O)OCC3 (stereo not given) do in these assays?
CHO parental Ca: -3; OXTR potentiate: -1

Results for CCN(CC)CCOc1ccc(/C(=C(\Cl)c2ccccc2)c2ccccc2)cc1 ?
CHO parental Ca: -3; OXTR potentiate: -1

What do the screens show for `CN1CCN2c3ccccc3Cc3ccccc3C2C1` (stereo not given)?
CHO parental Ca: -24; OXTR potentiate: -4

How did O=C(CCCN1CCC(O)(c2ccc(Cl)cc2)CC1)c1ccc(F)cc1 do in these assays?
CHO parental Ca: -13&-21; OXTR potentiate: -4&-7

How did CCOc1ccc(NC(C)=O)cc1 do in these assays?
CHO parental Ca: -6; OXTR potentiate: -2

What do the screens show for `COc1ccc(OC)c(C(O)CNC(=O)CN)c1` (stereo not given)?
CHO parental Ca: -8; OXTR potentiate: -2

Filtered by structure: those above with a COOH group (six)
What do the screens show for `CC1(C)[C@H](C(=O)O)N2C(=O)C[C@H]2S1(=O)=O`?
CHO parental Ca: -7; OXTR potentiate: -2

How did NCCCC[C@H](N[C@@H](CCc1ccccc1)C(=O)O)C(=O)N1CCC[C@H]1C(=O)O do in these assays?
CHO parental Ca: -3&0; OXTR potentiate: -5&-4

Results for CC(C(=O)O)c1cccc(C(=O)c2ccccc2)c1 (stereo not given) ?
CHO parental Ca: -10; OXTR potentiate: -1

What do the screens show for `O=C(O)COCCN1CCN(C(c2ccccc2)c2ccc(Cl)cc2)CC1` (stereo not given)?
CHO parental Ca: 2; OXTR potentiate: -7

How did O=C(O)[C@@H](O)[C@H](O)C(=O)O do in these assays?
CHO parental Ca: -6; OXTR potentiate: 3

How did CCc1cccc2c3c([nH]c12)C(CC)(CC(=O)O)OCC3 (stereo not given) do in these assays?
CHO parental Ca: -3; OXTR potentiate: -1
